# Bioassay records from PubChem BioAssay.
# Vaccinia mCherry – qHTS for Stage-Specific Inhibitors of Vaccinia Orthopoxvirus: mCherry Reporter Primary qHTS. AID 720579, 2013. actives 0.63% (n = 310,000). Potency, µM (doses to about 36.5 µM), without a hit: at the top dose activity change, negative = inhibition, most hits filed as inhibitors. Vaccinia virus mCherry reporter infection, fluorescence; about a quarter of the inactives have no number; active = well fitted inhibition curve with a large enough effect; inconclusive = small, poorly fitted or top-dose-only effect; inactive = no such curve, though single readings can be large or run the other way; tested in A549 cells; note: nearly all actives have a fitted effect of over 35% in size; inactives centre near -10
# Vaccinia Venus – qHTS for Stage-Specific Inhibitors of Vaccinia Orthopoxvirus: Venus Reporter Primary qHTS; Vaccinia virus Venus reporter expression, fluorescence; Potency, µM (series often up to 36.5 µM), for the others: at the highest dose activity change, negative = inhibition, usual class: inhibitors; actives 0.46% (n = 330,000); active means well fitted inhibition curve with a large enough effect; inconclusive means small, poorly fitted or top-dose-only effect; inactive means no such curve, though single readings can be large or run the other way; tested in A549 cells; note: nearly all actives have a fitted effect of over 30% in size; inactives centre near -10
# An asterisk follows results filed as active; i = inactive; ? = inconclusive; · = no result given; [ ] = dose if it differs, or a comment. % is set by controls: 0 for no effect and ±100 for the full control effect; potency is the fitted concentration of half-maximal effect.
structure	Vaccinia mCherry	Vaccinia Venus
CCc1c(C)nc(N)nc1N1N=C1SC(C(C)=O)C(C)=O	i	-8%
O=C(Nc1ccncc1)c1ccccc1-c1ccccc1	2%	1%
CS(=O)(=O)N(CC(=O)N1CCN(c2cccc(Cl)c2)CC1)c1cccc(F)c1	·	-19%
COc1ccc(N2CCN(c3ncnc4sc(C(=O)NCC5CCCO5)c(C)c34)CC2)cc1 (configuration not stated)	-3%	-22%
Cc1ccc(C)c(NC(=S)N2CCCCCC2)c1	·	-10%
O=C(Oc1ccccc1Cl)c1ccccc1P(=O)(O)O	0%	-5%
COC(C/C=C/[C@@H](O)[C@@H](C)OCc1ccccc1)OC	i	-7%
O=C1/C(=C/c2cccnc2)SC(=S)N1c1ccc(O)cc1	-25%	-6%
Cc1csc(NC(=O)c2cc(=O)[nH]c3ccc(S(=O)(=O)N4CCOCC4)cc23)n1	i	-8%
Cc1ccc(NC(=O)CN(Cc2ccco2)Cc2ccccc2O)cc1C	-29%	-13%
Cc1ccc(CNC(=O)Cn2cc3c(n2)-c2c(oc(C(=O)N4CCOCC4)c2C)CC3)cc1	-21%	-17%
Cc1ccc(NC(=O)c2ccc(=O)n(CC(=O)Nc3cc(C)cc(C)c3)n2)cc1	-14%	-6%
C=CCNC(=O)c1onc(CSc2cccc(OC)c2)c1C(=O)NCC=C	i	-14%
COc1ccccc1CC(=O)NCCc1c[nH]c2ccccc12	?	10%
C=C(C)CNC(=S)NNC(=O)c1ccc(Br)cc1	i	-8%
CCCCCCCNC(=O)C1(CC2CC(c3ccc(Cl)cc3)=NO2)CCN(C(=O)c2ccccc2)CC1 (configuration not stated)	-8%	-26%
COc1ccc(CCNc2nc3c(c(=O)n(C)c(=O)n3C)n2Cc2ccccc2Cl)cc1OC	i	-4%
CCC1CCCCN1C(=O)Cn1c(=O)n(CCC(=O)NCc2ccco2)c(=O)c2sccc21 (configuration not stated)	-8%	-7%
COc1ccccc1OCc1ccc(C(=O)NN)cc1	-10%	-9%
Cc1ccccc1OCC(=O)NC(=S)Nc1ccc(N2CCOCC2)c(Cl)c1	-11%	-12%
Cc1cc(C)c(C)c(S(=O)(=O)N2CCN(CC(=O)c3c(N)n(Cc4ccccc4)c(=O)n(C)c3=O)CC2)c1C	-26%	?
O=C(COC(=O)CCSc1ccccc1Cl)Nc1ccc(F)cc1F	-18%	-14%
Cc1cccc(C)c1-c1ccc(CN2C(CC(C)C)C(=O)N(Cc3cn(CC4CCCCC4)nn3)CCS2(=O)=O)cc1 (configuration not stated)	?	-9%
CC(C)(C)OC(=O)NCCCCCc1nnc(SCc2c(F)cccc2Cl)o1	i	-15%
O=c1c2ccccc2nnn1CCN1CCOCC1	-12%	-14%
COc1ccc(-n2nc(C(=O)NCC(=O)NCCc3ccc(OC)c(OC)c3)c3ccccc3c2=O)cc1Cl	-9%	-2%
Cc1cnc(C(=O)OCC(=O)Nc2cc(Cl)cc(Cl)c2)cn1	-1%	-9%
Nc1[nH]ncc1-c1ccccc1	?	-18%
Cc1ccc2cc(C#N)c(SCC(=O)NCC3CCCO3)nc2c1 (configuration not stated)	·	-10%
COc1ccc(C#Cc2c(-c3ccc(OC)cc3)oc3ccc(-c4ccc(OC)cc4)cc23)cc1	i	3%

# Entries from the list above that have two or more sulfur atoms, in the order listed:
structure	Vaccinia mCherry	Vaccinia Venus
O=C1/C(=C/c2cccnc2)SC(=S)N1c1ccc(O)cc1	-25%	-6%
Cc1csc(NC(=O)c2cc(=O)[nH]c3ccc(S(=O)(=O)N4CCOCC4)cc23)n1	i	-8%

# The results go on.
structure	Vaccinia mCherry	Vaccinia Venus
CC(C)(C)n1ncc2c(=O)n(CC(=O)NCCc3ccccc3)cnc21	-17%	-4%
CC(C)C[C@H](NC(=O)c1[nH]cnc1C(=O)N[C@H](C)c1ccccc1)C(=O)OCc1ccccc1	-3%	-24%
COCCNC(=O)c1ccc2c(=O)n(CCCN3CCCC3=O)c(=S)[nH]c2c1	-8%	-8%
CCN(CC)CCCNC(=O)c1nn(-c2ccc(OC)cc2OC)c(=O)c2ccccc12	·	-3%
N#Cc1ccc(/C=C2\CCCCn3c2nc2cc(C(=O)O)ccc2c3=O)cc1	-11%	1%
CC1C(=O)CCCCCCCCCC2C1(N1CCOCC1)CS2(=O)=O (configuration not stated)	-23%	-10%
O=C1CC(c2ccsc2)c2cc3c(cc2N1)OCCO3 (configuration not stated)	-35%	-15%
COc1ccccc1C1C2=C(N=C3SCC(=O)N31)c1ccccc1CC2 (configuration not stated)	·	-11%
COc1cc(OC)c(C2C(C#N)=C(C)NC(C)=C2C#N)c(C(=O)O)c1	-17%	-2%
CC(C)(C)c1nc(SCC(=O)NNC(=O)c2ccccc2)c2ccccc2n1	?	-30%
CC1=CC(=O)C(C(C)C)=C/C1=N/OC(=O)c1cccc([N+](=O)[O-])c1	-28%	-12%
CC1(C)CC(=O)c2cc(-c3nc(-c4ccc(Cl)cc4)cs3)c(=O)n(-c3ccc(Cl)cc3)c2C1	-7%	-6%
CCCCN(C(=O)CSCc1c(C)noc1C)c1c(N)n(CCCC)c(=O)[nH]c1=O	i	-2%
CCc1ccc(NC(=O)C2CCN(C(=O)N3CCOc4ccccc43)CC2)cc1	-22%	?
COc1ccc(C)cc1NC(=O)Cn1c(=O)cc(C)c2c(C)nn(C)c21	i	-24%
O=C(N/N=C/c1c(O)n(CCC2=CCCCC2)c(=O)[nH]c1=O)c1ccccc1	-6%	-12%
Cc1ccc(N2C(=O)[C@@H]3[C@H](C2=O)C2CCCN2[C@@H]3C(=O)c2ccccc2)cc1 (some centres not stated)	-10%	-1%
CC(C)Oc1ccc(CCC(=O)N/N=C/c2ccc3c(c2)OCO3)cc1	-10%	-3%
O=C(COc1ccc2c(c1)CCC2)N1CCN(c2cccc(C(F)(F)F)c2)CC1	?	-9%
O=C(Cc1c(Cl)cccc1Cl)OCC(=O)N1CCOCC1	-5%	-17%
CCN1CCN(S(=O)(=O)c2ccc(Cl)c(C(=O)N(C)Cc3cccc(Cl)c3Cl)c2)CC1	-19%	?
COC(=O)[C@@]12C[C@@H](CC(=O)NCC34CC5CC(CC(C5)C3)C4)C(=O)N(Cc3ccc4c(c3)OCO4)C1=CCC(C)(C)C2	?	?
CN=CC1=C(O)CC(C)(C)CC1=O	·	13%
O=C(CSc1nc(-c2cccs2)nc2cc(=O)[nH]n12)Nc1ccccc1	-6%	-4%
C=CCOc1ccc(CNCCO)cc1OCC	i	-11%
CCOC(=O)C1(C)/C(=N/Nc2ccc(S(N)(=O)=O)cc2)C(=O)C(=O)N1c1ccccc1 (configuration not stated)	i	-14%
COc1ccc(CCNC(=O)c2noc(C(C)C)c2[N+](=O)[O-])cc1OC	-21%	-8%
Cc1c(C(=O)NC2=NCCS2)cccc1[N+](=O)[O-]	i	-5%
CCc1cc2cc(C)ccc2nc1SCC(=O)N1CCN(C(=O)c2ccco2)CC1	·	-14%
COCCNc1ncnc2onc(-c3ccc(F)cc3)c12	-11%	0%
CCC(C)NC(=O)CSc1nnc(-c2cc(-c3ccc(C)cc3)nc3ccccc23)n1N (configuration not stated)	·	-17%
O=C(O)c1cc(S(=O)(=O)N(Cc2ccccc2)c2ccc(Cl)cc2)ccc1Cl	-14%	-11%
O=S(=O)(c1ccc(F)cc1)N1CCC(Oc2ccc(-n3cnnn3)cc2)CC1	-8%	-12%
CC1(C)Cc2c(sc3nc4n(c(=O)c23)CCC4)CO1	i[1.46 µM]	-4%
CC1(Oc2cccc(F)c2)CCN(Cc2ccccc2OC(F)F)C1 (configuration not stated)	-7%	0%
O=C(NC1=NCCS1)c1cccc(Br)c1	i	-15%
O=C(NCc1ccco1)C(=O)NCC1OCCN1S(=O)(=O)c1cc(F)ccc1F (configuration not stated)	i	-3%
Cc1ccc(NC(=O)COC(=O)CC2CC3CCC2C3)cc1S(=O)(=O)N1CCOCC1 (configuration not stated)	-18%	-8%
O=C(COc1ccc(S(=O)(=O)N2CCCC2)cc1)NCc1ccccn1	11%	23%
CCN(CC(=O)Nc1c(F)cccc1F)C(=O)CSc1nc(C)cc(C)n1	-21%	-11%
COc1ccc(C(=O)CN2CCN(S(=O)(=O)c3cccc([N+](=O)[O-])c3)CC2)cc1	-17%	-7%
CC(NC(=O)c1sc2cc([N+](=O)[O-])ccc2c1Cl)C(C)(C)C (configuration not stated)	-16%	-13%
CC(Cl)C(=O)NNc1cccc(Cl)n1 (configuration not stated)	·	?
O=C(Nc1nc2c(Cl)ccc(Cl)c2s1)C1CC1	-12%	-22%
CCO/N=C(/C)c1c(O)cc(C(C)(C)C)n(-c2ccccc2)c1=O	i	-13%
CCc1ccc(OCC(=O)N2CCN(CC(=O)Nc3ccccc3Cl)CC2)cc1	0%	-2%
CCCCCn1c(=O)[nH]c2c(c1=O)CCC2	-4%	?
CCOc1ccc(N2C(=O)CC(Sc3nnnn3-c3ccccc3)C2=O)cc1 (configuration not stated)	-2%	6%
Cc1ccc(C(=O)NCC(=O)Nc2ccncc2)cc1C	-14%	-1%
CC(C)Nc1nc(Cl)nc(Nc2ccccc2)n1	i	-7%

# Quoted at random: two records from the list.
structure	Vaccinia mCherry	Vaccinia Venus
Cc1ccc(N2C(=O)[C@@H]3[C@H](C2=O)C2CCCN2[C@@H]3C(=O)c2ccccc2)cc1 (some centres not stated)	-10%	-1%
O=C(O)c1cc(S(=O)(=O)N(Cc2ccccc2)c2ccc(Cl)cc2)ccc1Cl	-14%	-11%

# Next section.
structure	Vaccinia mCherry	Vaccinia Venus
O=C(CSc1cccc2cccnc12)NCc1ccco1	·	-11%
C[C@H]1CC[C@]2(O[C@H](CCO)C[C@H](O)[C@H]2O)O1	-9%	5%
CCOCCn1c(-c2ccc(OC)cc2)nc2ccccc21	i	-13%
O=C(COc1ccccc1Cl)NC(=S)Nc1cccc(NC(=O)c2ccccc2Cl)c1	?	-23%
Cc1ccccc1CNC(=O)c1ccc2c(c1)N(Cc1ccccc1)CCS2	-21%	-9%
COC(=O)c1cc(COc2ccc3c(c2)oc(=O)c2ccccc23)c(C)o1	-13%	-3%
COc1cc(NC(=O)C2Cc3ccccc3CN2S(C)(=O)=O)cc(OC)c1 (configuration not stated)	-14%	-2%
COc1cc(C(=O)OCC(=O)Nc2ccc(N3CCOCC3)cc2)ccc1OCC(C)C	-13%	4%
C1CCN(c2c3c(nc4nnnn24)CCCC3)CC1	·	-4%
CCCCOC(=O)CNc1nnc(SCC(=O)OCC)[nH]c1=O	·	-16%
O=C(NS(=O)(=O)Nc1ccc(Cl)cc1)c1c[nH]c2ccccc12	-12%[7.34 µM]	-11%[7.34 µM]
CCN1CCN(S(=O)(=O)c2ccc(Cl)c(C(=O)NCc3nc4ccccc4[nH]3)c2)CC1	-23%	-13%
O=C1NC[C@@H](CCCCN2CCN(CC3CCCCC3)C(=O)C2=O)N(CC2CCCCC2)C1=O	-4%	7%
O=C(c1cc2c(ccc3ccccc32)oc1=O)N1CCN(CCO)CC1	5%	4%
CCn1c(CN2CCCCCC2=O)nnc1SCc1cnc(-c2ccccc2)s1	-4%	-5%
c1coc(CSc2ncnc3c2oc2ccccc23)c1	i	-1%
Cc1[nH]nc2c1C1(CCC3(CC1)OCCO3)C(C#N)=C(N)O2	-9%	6%
Cc1ccc(/C=N/NC(=O)c2cc(-c3ccc(C)o3)[nH]n2)cc1	-18%	?
COc1ccccc1OCC(=O)OCC(=O)Nc1ncc(Cl)cc1Cl	·	1%
Cc1ccc(S(=O)(=O)NNC(=O)c2cc([N+](=O)[O-])c(C)c([N+](=O)[O-])c2)cc1	-15%	-9%
CC(Sc1nc2ccccc2c(=O)n1CC1CCCO1)C(=O)NC(C)c1ccccc1 (configuration not stated)	-13%	-3%
COc1ccc(OCC(=O)N/N=C/c2ccc(OC)c(OC)c2C(=O)O)cc1	i	0%
CCOC(=O)c1sc(=NC(=O)c2cccc(C)c2)n(C)c1C	-2%	-7%
CC(=O)c1c(COC(=O)c2ccc(C)cc2)nc2ccccc2[n+]1[O-]	i	-21%
Fc1ccc(-[n+]2nc(Nc3ccccc3)sc2-c2cccc(Cl)c2Cl)cc1	i	-14%
COCCSc1ccccc1C(=O)N1CCN(Cc2ccc3c(c2)OCO3)CC1	-15%	-9%
Cc1ccccc1C(=O)NC1CCN(C(=O)N(c2ccccc2)c2ccccc2)CC1	i	-12%
COC(=O)c1ccccc1-n1c(C)nc2ccccc2c1=O	·	11%
CC(C)NC1(C(N)=O)CCNCC1	-12%	3%
COc1ccc(C(=O)NNC(=O)C(=O)Nc2cccc3ccccc23)cc1	-25%	4%
CCN1c2ccccc2-c2nc3ccccc3n2C1c1ccccn1 (configuration not stated)	·	-11%
CCN(CC)S(=O)(=O)c1ccc(N=NC2=C(O)CC(C)(C)CC2=O)cc1	-13%	-12%
Nc1cc(N)nc(SCC(=O)NC2CCCCCCC2)n1	-9%	-6%
Cc1cc(=O)oc2c(CN3CCCC3)c(O)c(Cl)cc12	-8%	6%
CC(C)(C)NC(=O)CN1CCC(O)(c2ccc3c(c2)OCO3)CC1	-13%	-6%
COc1ccc(/C=C/C(=O)OCC(=O)NCc2ccccc2Cl)cc1OC	-12%	-10%
